gsp antagonist – antagonizes gsp, the McCune-Albright syndrome mutation. gsp-mutant cells, cAMP HTRF, 30 min; control for the full effect not named in the record. Potency, µM (doses to about 76.9 µM), inactives show top-dose activity change, negative = inhibition, usual class: inhibitors. 0.4% of 340,000 active. AID 624288; active = falling curve of any shape with a large fitted effect; inconclusive = falling curve, mostly with a smaller effect; inactive = flat or rising curve; cell line not stated here;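 also: intracellular cAMP measured with PDE inhibitor Ro 20-1724 present during compound exposure; potency is read from the fitted curve at half-maximal effect; % is scaled to controls: 0 for no effect and ±100 for the full control effect; nearly all actives have a fitted effect of over 65% in size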
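Cells, 2000/well, grown 16–24 h in DMEM 10% FBS with 0.5 mg/ml G418, then compounds plus […] (300 uM addition stock), 30 min at 37C. cAMP read by HTRF (cAMP-d2 and anti-cAMP antibody-K in lysis buffer) after 30 min RT.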
TRPML1 inh – blocks the human TRPML1 channel. Q9GZU1. TRPML1-inducible cells, Ca2+ dye fluorescence, FDSS; stronger effect = lower value; inhibition of EC80 agonist-evoked calcium signal. activity change, negative = inhibition, % (no concentration beside the values). 0.02% of 390,000 active; in the data active means activity change below about -50%; inconclusive means about -30% to -50%; inactive means above about -30%;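 also: stimulus is agonist 54-4 at its EC80 concentration; % is scaled to controls: 0 for no effect and ±100 for the full control effect; compound concentration not given in the record; the text of the record puts the active cut at -80%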
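Tet-induced TRPML1-DL cells loaded with Ca8 no-wash calcium dye were read kinetically on FDSS. Compound addition was followed by EC80 agonist 54-4 (4 uM final); inhibition was read over 110 s.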
ClpP mod – qHTS Assay for Activators of ClpP. ATP-dependent Clp protease proteolytic subunit (Bacillus subtilis (strain 168)), P80244. purified B. subtilis ClpP, FRET peptide cleavage, 20 min. Potency, µM (titrated, usually from 57.5 µM), without a hit: at the highest dose activity change, negative = active. 1.9% of 340,000 active. AID 651965, 2013; active = well fitted falling curve with a large enough effect; inconclusive = small, poorly fitted or top-dose-only effect; inactive = no such curve, though single readings can be large or run the other way; also: potency is read from the fitted curve at half-maximal effect; the source files actives as falling curves though it sought activators and does not explain the sign; nearly all actives have a fitted effect of over 65% in size; many hits overshoot -100%
Target sequence (P80244 whole entry, looked up): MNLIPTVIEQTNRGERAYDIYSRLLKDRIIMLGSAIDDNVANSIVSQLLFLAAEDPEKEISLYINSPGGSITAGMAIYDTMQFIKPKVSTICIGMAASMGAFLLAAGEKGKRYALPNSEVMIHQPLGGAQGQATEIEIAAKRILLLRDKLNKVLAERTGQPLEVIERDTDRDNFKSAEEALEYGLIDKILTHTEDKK
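FRET quenching reversal measured ClpP activation: 10 microg/mL B. subtilis ClpP at pH 8 with the FRET-FV decapeptide, read at 430 nm after 320 nm excitation. The 20-min minus 0-min signal was scaled between DMSO/no-enzyme wells and ADEP (5.8 microM final).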
Sfp inh – inhibitors of Bacillus subtilis Sfp phosphopantetheinyl transferase; Q9F4F7; Biochemical Sfp PPTase activity, qHTS; Potency, µM, inactives show max response, negative = inhibition, actives largely listed as inhibitors; 3.5% of 310,000 active; active = well fitted inhibition curve with a large enough effect; inconclusive = small, poorly fitted or top-dose-only effect, or another doubt; inactive = no such curve, though single readings can be large or run the other way;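 also: the enzyme is Sfp with the accession as filed and its product quenches rhodamine fluorescence; potency is read from the fitted curve at half-maximal effect; 0% = enzyme reaction without inhibitor and -100% = no enzyme wells; top concentration of the series not given in the record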
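After 15 min at room temperature with compound, 15 nM Sfp received 5 uM rhodamine-CoA plus 12.5 uM BHQ-2-ybbR (50 mM Hepes pH 7.6, 10 mM MgCl2). Rate came from the fluorescence difference over 30 min, ex 525/em 598 nm.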
gsp agonist – gsp mutant agonism; 0.13% of 340,000 active; gsp mutant cells, cAMP HTRF, 30 min; control for the full effect not named in the record; Potency, µM (titrated, usually from 76.9 µM), without a hit: at the highest dose activation (cAMP increase), usual class: activators; active = well fitted activation curve with a large enough effect; inconclusive = small, poorly fitted or top-dose-only effect, or another doubt; inactive = no such curve, though single readings can be large or run the other way; cell line not stated here;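 also: phosphodiesterase inhibitor Ro 20-1724 added with compounds to block cAMP breakdown; potency is read from the fitted curve at half-maximal effect; nearly all actives have a fitted effect of over 60% in size; about a fifth of the inactives were tested at one dose only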
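Cells stably selected in G418 were plated at 2000/well, grown 16-24 hr, then given compounds in DMSO with the PDE inhibitor […] (300 uM solution added) for 30 min at 37C; cAMP was read by HTRF.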
Menin MLL FP FL – menin-MLL binding inhibition, fluorescein peptide; 290,000 tested, under 10 active; FP activity change, % at 61.4 µM; Fluorescence polarization, fluorescein-MLL peptide displacement from menin; inconclusive = falling polarisation curve, or a change in total fluorescence; inactive = total fluorescence flat and polarisation flat or rising; no compound was filed as active; the % refers to the polarisation; negative = inhibition;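 also: % of control where 0% means no effect; inhibitors lower the polarisation; unlabelled MLL peptide was the positive control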
TRPV1 PAM – human TRPV1 potentiation; Q8NER1; TRPV1-expressing cells, Fluo-8 calcium influx, capsaicin EC20 potentiation; host cell line not named in the record; control for the full effect not named in the record; potentiation, % at 8.33 µM; 0.02% of 320,000 active; AID 540277; active means potentiation above 80%; inconclusive means 30% to 80%; inactive means below 30%; also: 0% is about no effect
Target sequence (Q8NER1 whole entry, looked up): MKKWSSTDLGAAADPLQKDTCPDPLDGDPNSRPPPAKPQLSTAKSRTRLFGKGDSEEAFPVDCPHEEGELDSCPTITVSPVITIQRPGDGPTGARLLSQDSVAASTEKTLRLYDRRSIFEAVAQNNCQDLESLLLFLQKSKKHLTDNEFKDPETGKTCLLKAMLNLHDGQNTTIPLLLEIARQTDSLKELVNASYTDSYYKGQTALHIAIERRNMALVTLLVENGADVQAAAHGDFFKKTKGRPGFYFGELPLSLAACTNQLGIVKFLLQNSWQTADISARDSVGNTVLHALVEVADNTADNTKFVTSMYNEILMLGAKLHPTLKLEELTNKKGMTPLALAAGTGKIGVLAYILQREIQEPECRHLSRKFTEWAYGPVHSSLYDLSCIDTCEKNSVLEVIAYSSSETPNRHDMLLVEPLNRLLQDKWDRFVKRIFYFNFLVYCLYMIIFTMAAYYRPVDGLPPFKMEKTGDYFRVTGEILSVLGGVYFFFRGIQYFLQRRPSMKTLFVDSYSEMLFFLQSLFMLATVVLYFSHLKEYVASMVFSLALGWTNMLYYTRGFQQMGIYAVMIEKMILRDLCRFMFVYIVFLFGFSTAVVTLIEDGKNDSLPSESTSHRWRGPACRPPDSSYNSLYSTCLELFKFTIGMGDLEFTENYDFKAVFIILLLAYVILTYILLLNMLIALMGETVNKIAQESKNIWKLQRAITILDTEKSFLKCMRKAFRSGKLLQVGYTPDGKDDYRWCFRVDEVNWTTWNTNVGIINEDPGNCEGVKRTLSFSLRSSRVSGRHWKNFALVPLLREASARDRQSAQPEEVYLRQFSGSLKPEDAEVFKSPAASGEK
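TRPV1-expressing cells were cultured overnight at 35.5C and loaded with Fluo-8 calcium dye for 40 to 90 min at room temperature. After a 10 s baseline, compound was added and calcium influx was read kinetically for 3 min (ex 480/em 520 nm).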
* hit, by the source's call; ? = inconclusive; . = no result given; [ ] = dose if it differs, or a comment.

SMILES	gsp antagonist	TRPML1 inh	ClpP mod	Sfp inh	gsp agonist	Menin MLL FP FL	TRPV1 PAM
Cc1ccc(S(=O)(=O)N2CCCC(C(=O)NCCCN3CCCCC3C)C2)cc1 (stereo not given)	15%	1	0.4%	18%	-24%	3.2	8
COc1ccccc1OC1OC2COC(c3ccco3)OC2C(O)C1NC(C)=O (stereo not given)	-2%	12	-0.9%	6%	-25%	1.3	7
COc1cccc(CN2CCC(C(=O)N3CCN(c4ccccc4F)CC3)CC2)c1	10%	21	-2.2%	-11%	-19%	0.1	-4
CCc1c(C)sc(NC(=O)c2cnn3cccnc23)c1C#N	6%	9	0.3%	1%	1%	0.9	0
CC(C)CNC(=O)c1nc(-c2ccccc2)n(-c2ccccc2)n1	1%	1	0.8%	-1%	-23%	5.1	10
Nn1c(SCC(=O)NC(=O)NCc2ccco2)nnc1-c1ccc(OC(F)F)cc1	6%	-8	-2.3%	-10%	15%	1.1	13
O=C(NCCN1CCCCCC1)c1ccc(CS(=O)(=O)c2ccc(Br)cc2)o1	5%	-2	0.0%	-13%	-32%[inhibitor]	1.4	4
CCOc1ccc(CCNC(=O)C2CCN(S(=O)(=O)N3CCC(C)CC3)CC2)cc1OCC	0%	-2	-11%	6%	-42%[inhibitor]	-0.1	2
N#Cc1nn(-c2ccccc2)nc1N1CCCCC1	-4%	1	-4.7%	-19%	13%	0.2	1
COc1ccc(S(=O)(=O)N2CCN(C(=O)Nc3ccccc3OC)CC2)cc1	6%	14	-1.2%	3%	-30%[inhibitor]	.	-1
NC(=O)CC(NC(=O)Cc1cccc2ccccc12)c1ccc(NC2CCCCC2)c([N+](=O)[O-])c1 (stereo not given)	-7%	0	-0.5%	-2%	.	1.3	22
O=C(NCc1cccs1)Nc1ccc(Cl)cc1	7%	26	20µM*	3%	8%	-2.4	-4
Cc1ccc(S(=O)(=O)NCCC(=O)N2CCCCCC2)cc1	14%	1	0.9%	.	-3%	.	26
O=C(NCCCn1ccnc1)C(=O)NCC1OCCN1S(=O)(=O)c1cc(F)ccc1F (stereo not given)	10%	-4	.	-13%	-2%[15.4 µM]	0.6	-11
COc1ccc2c(C(=O)CN3CC(C)OC(C)C3)c[nH]c2c1 (stereo not given)	-5%	12	-3.3%	12%	6%	2.5	-8
O=C(Cn1nc(-c2ccc(Cl)cc2)c2ccccc2c1=O)NCC1CCCO1 (stereo not given)	-10%	-10	0.5%	-9%	25%	-0.2	-5
CC(C)CNC(=O)/C=C/C=C/CCCC/C=C/c1ccc2c(c1)OCO2	-1%	-14	-6.8%	.	.	.	-4
COCC(=O)N1CCC(Oc2ccc(C(=O)NCc3cc(C)n(C)n3)cc2)CC1	4%	-4	-0.6%	1%	7%	.	-5
CC(C)CCOc1ccccc1C(N)=O	6%	7	-0.1%	-7%	-62%[inhibitor]	-0.2	-9
CCc1ccc(NC(=O)CSc2nc(-c3ccc(C)cc3)nc3c2Cc2c(CO)cnc(C)c2O3)cc1	.	41	-2.4%	.	.	.	-5
COc1ccc(C2/C=C\CN(S(=O)(=O)c3ccc(C)cc3)CC(=O)N2Cc2cccc(F)c2)cc1 (stereo not given)	-7%	78	-3.0%	-1%	.	1.7	.
CC(=O)Nc1ccc(S(=O)(=O)N2CCN(Cc3cccs3)CC2)cc1	-4%	-26	.	-18%	4%	-5.7	-1
O=C(c1ccc(F)cc1)N1CCC(C(=O)N2CCN(S(=O)(=O)c3cccc(Cl)c3)CC2)CC1	-3%	2	0.9%	.	-10%	.	1
Cn1ccnc1C(=O)c1cccc([N+](=O)[O-])c1	13%	-9	-0.4%	3%	5%	0.7	0
O=C(CCl)Nc1c2c(nn1-c1ccccc1)CSC2	-12%	-10	.	15%	-1%[15.4 µM]	8.1	7

Carrying on.
SMILES	gsp antagonist	TRPML1 inh	ClpP mod	Sfp inh	gsp agonist	Menin MLL FP FL	TRPV1 PAM
Cc1ccc(S(=O)(=O)c2nc(S(C)(=O)=O)sc2N2CCN(C)CC2)cc1	8%	-10	-0.2%	10%	1%	.	15
O=C(CCc1nnc(CCCc2ccccc2)o1)NC(C1CC1)C1CC1	-5%	3	.	15%	2%	-0.3	6
O=C(COC(=O)/C=C/c1ccc(F)cc1)NCc1ccco1	-3%	11	.	10%	11%	0.6	0
NC(=O)CC(NC(=O)c1cccc(Br)c1)c1ccc(N2CCC(N3CCCCC3)CC2)c([N+](=O)[O-])c1 (stereo not given)	7%	-12	0.1%	10%	-1%	-3.2	-20
COc1ccccc1NC(=O)CSc1ccc2nnc(-c3ccc(C)cc3)n2n1	-3%	5	-3.0%	17%	44%	-2.2	2
CCOc1ccccc1NC(=O)COC(=O)CSc1ccc(Cl)cc1	-3%	-17	.	8%	-4%[15.4 µM]	-1.8	-8
COc1cccc(NC2=C(Cl)C(=O)OC2OC(=O)c2ccco2)c1 (stereo not given)	1%	-12	.	18%	-14%[15.4 µM]	-6.2	-3
O=C(NC1CCCCCCC1)c1ccc(Br)cc1	7%	5	.	.	7%[15.4 µM]	.	.
O=C(CCCNC(=O)/C(=C\c1ccccc1F)NC(=O)c1ccccc1)OCc1ccccc1	-5%	0	-1.1%	5%	-1%	0.5	10
CCC1(C)COC2(OC1)C(=O)Nc1ccccc12 (stereo not given)	4%	-11	-5.3%	22%	-2%	-0.5	-4
O=C(NCC1CCN(Cc2ccc(F)cc2)CC1)C1CCCN(c2ncnc3c2nc2n3CCCCC2)C1 (stereo not given)	1%	-7	0.3%	15%	?	.	8
COc1ccc(C2c3ccc4ccccc4c3Oc3ncn4nc(Cc5ccccc5)nc4c32)cc1OC (stereo not given)	13%	-7	?	2%	-31%[inhibitor]	6.5	-2
CN(C)c1ccc(/C=C2/C(=O)N(c3ccc([N+](=O)[O-])cc3)N=C2N2CCOCC2)cc1	.	.	.	-17%	.	9.6	5
Cc1cc(C)c(NC(=O)Nc2ccccc2C)c(Cl)c1	2%	0	0.2%	-10%	-4%	-0.8	-15
COc1cccc(N2CCN(C(=O)c3ccc4nc(N5CCC(C)CC5)sc4c3)CC2)c1	.	-11	-6.5%	-8%	.	3.7	-10
C=CCNC(=S)Nc1sc2c(c1C(=O)OCC)CC(C)(CC)OC2 (stereo not given)	7.9µM*	28	.	-3%	-2%[15.4 µM]	9.4	-5
CCN(CC)S(=O)(=O)c1ccc2c(c1)NC(=O)C1CCCN21 (stereo not given)	-7%	13	-3.1%	-1%	?	8.8	7
O=C(CSc1nnnn1C1CCCCC1)N1CCCC1	6%	3	-1.6%	1%	-33%	-0.1	5
CCN(CC)C(=O)c1ccccc1NC(=O)c1ccccc1	9%	10	.	5%	23%	-2.3	-2
Cc1nn(C)c(C)c1NC(=O)CSc1nc(Cc2ccccc2)nc2c1cnn2-c1ccccc1	1%	-2	-1.2%	.	-2%	.	.
CCOCC(=O)Nc1cc(C(=O)NCCC(C)C)ccc1Cl	.	.	.	-21%	.	-1.6	-25
COc1ccc(-c2[nH]ncc2-c2cnc(C)s2)c(O)c1	-6%	20	-0.2%	5%	-11%	-0.2	-5
Cc1ccccc1NC(=O)C1CCCN1S(=O)(=O)c1ccc2c(c1)n(C)c(=O)c(=O)n2C (stereo not given)	-9%	8	-20%	24%	28%	6.4	-2
CC1(C)CC(NC(=O)Cc2ccccc2[N+](=O)[O-])CC(C)(C)N1	7%	?	-3.9%	12%	10%	2.5	-1
C/C(N)=C(/C#N)C(=O)COC(=O)C1CSC2(c3ccc(F)cc3)CCC(=O)N12 (stereo not given)	4%	-6	.	7%	-51%[15.4 µM]	3.4	0

Among those listed so far, these have an NH in an aromatic ring.
SMILES	gsp antagonist	TRPML1 inh	ClpP mod	Sfp inh	gsp agonist	Menin MLL FP FL	TRPV1 PAM
COc1ccc2c(C(=O)CN3CC(C)OC(C)C3)c[nH]c2c1 (stereo not given)	-5%	12	-3.3%	12%	6%	2.5	-8
COc1ccc(-c2[nH]ncc2-c2cnc(C)s2)c(O)c1	-6%	20	-0.2%	5%	-11%	-0.2	-5

Carrying on:
SMILES	gsp antagonist	TRPML1 inh	ClpP mod	Sfp inh	gsp agonist	Menin MLL FP FL	TRPV1 PAM
CN(C)CCCn1c(SCC(=O)Nc2nccs2)nnc1-c1ccncc1	6%	-4	.	6%	27%	0.8	5
O=C(NCC(F)(F)F)Nc1ncccn1	2%	-23	0.0%	20%	-43%[inhibitor]	-0.2	5
OCCC1CN(Cc2ccsc2)CCN1C1CCCC1 (stereo not given)	12%	1	.	10%	14%	-0.8	1
S=c1[nH]nc(CCc2ccc(Cl)cc2)o1	-13%	3	.	-6%	-21%	.	-4
c1ccc2[nH]c(CSc3ncnc4c3oc3ccccc34)nc2c1	34%[activator]	-9	-1.8%	12%	31%	8.1	-3
COCCN1CCN(Cc2nc(Cc3ccc(OC)c(OC)c3)no2)CC1	8%	-11	1.3%	12%	-3%	2.1	-7
O=C(COc1ccc2ccccc2c1)Nc1cccc2cccnc12	-9%	-3	-13%	-35%	-17%	2.9	9
Cn1nc(C(F)(F)F)c2cc(NC(=O)OCC(C)(C)C)sc21	2%	-8	-1.4%	-8%	-6%	-0.5	-24
C/C(=N\NC(N)=S)c1ccc(Cl)s1	24%	30	-0.9%	-3%	23%	5.8	0
CC(Sc1nnc(-c2ccccc2F)n1C1CC1)C(N)=O (stereo not given)	6%	7	.	23%	-7%[15.4 µM]	0.3	-12
COC(=O)c1ccc(COC(=O)CNC(=O)C2CCCCC2)cc1	-6%	-4	.	.	-1%	.	.
Cn1nnnc1SCC(=O)NC(C)(C)C	10%	5	-12%	15%	4%	1.2	5
COc1ccc(/C(C)=N/Nc2nc(C)c(C(C)=O)s2)cc1	-21%	-4	-10%	-19%	1%	22	4
Cc1ccccc1Nc1c(F)c(F)c(F)c(F)c1C(=O)O	8%	3	.	-3%	11%	1.2	2
O=C(c1nn(-c2ccccc2)c(=O)c2ccccc12)N1CCN(c2ncccn2)CC1	-15%	-1	.	13%	18%[15.4 µM]	-7.1	-8
O=C(COc1cccc2cccnc12)N1CCc2ccccc21	4%	5	.	-8%	-1%[15.4 µM]	7.2	11

Screening results deposited in PubChem by National Center for Advancing Translational Sciences (NCATS).
